Assay outcomes deposited in PubChem BioAssay by ICCB-Longwood Screening Facility, Harvard Medical School.
RVFV N-RNA FP: inhibitors of RVFV nucleoprotein–RNA binding, primary screen, biochemical, fluorescence polarization; % bound, % (no concentration beside the values); actives 0.1% (n = 20,000); RVFV N-RNA binding; active compounds read low; P21700;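 active means between 0 and 58% in either replicate with normal brightness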;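 further: 100 nL library stock added to about 12 µL; 100% = protein and probe without compound and 0% = probe alone; numbers are from one replicate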
Target sequence (P21700 whole entry, looked up): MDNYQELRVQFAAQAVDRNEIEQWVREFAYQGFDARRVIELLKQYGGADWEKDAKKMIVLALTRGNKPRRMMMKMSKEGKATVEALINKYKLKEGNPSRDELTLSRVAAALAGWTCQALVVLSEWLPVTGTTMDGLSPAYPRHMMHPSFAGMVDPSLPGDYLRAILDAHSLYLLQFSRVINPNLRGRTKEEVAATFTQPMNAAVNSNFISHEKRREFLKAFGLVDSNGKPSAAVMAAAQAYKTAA
* marks the source's active call; other numbers are inactive results; & = joins results of further samples. Not all compounds are listed; the hit share may differ from the screen's.

Screening CCc1c(C)[nH]c2c1C(=O)C(CN1CCOCC1)CC2 (stereo not given) returned RVFV N-RNA FP 91&96.
For COc1cccc(C2CC(c3cccs3)=NN2C(=O)CN2CCN(C)CC2)c1O (stereo not given) the results were RVFV N-RNA FP 99.
For CC(C)(C)OC1CC(C(=O)O)N(C(=O)OCc2ccccc2)C1 (stereo not given) the results were RVFV N-RNA FP 93.
CC(C)(S)P(=O)(O)c1ccccc1 was read as RVFV N-RNA FP 101.
Screening C[C@@H]1C(=O)NC2=Nc3cccc(Cl)c3CN21 returned RVFV N-RNA FP 100.
Screening C[N+](C)(C)CCOP(=O)(O)OP(=O)([O-])OC[C@H]1O[C@@H](n2ccc(N)nc2=O)C(O)[C@H]1O (stereo not given in full) returned RVFV N-RNA FP 95.
`O=C1CC(c2ccc(Cl)cc2)CC(O)=C1C=NCCN1CCNCC1` (stereo not given) gave RVFV N-RNA FP 107.
Screening COc1ccc(CC(=O)Oc2ccc(C#N)cc2)cc1 returned RVFV N-RNA FP 95.
CN(C)S(=O)(=O)c1ccc(C(=O)NCCc2ccccc2)cc1 was read as RVFV N-RNA FP 97.
Screening CCOC(=O)Cn1c(=NC(=O)c2ccco2)sc2cccc(F)c21 returned RVFV N-RNA FP 98.
Screening CN1CCN2c3ccccc3Cc3ccccc3C2C1 (stereo not given) returned RVFV N-RNA FP 105&100.
For N/C(=N\OC(=O)CCN1C(=O)c2ccccc2C1=O)c1ccncc1 the results were RVFV N-RNA FP 92.
Cc1ccc(S(=O)(=O)NCc2cn3ccccc3n2)c(C)c1 was read as RVFV N-RNA FP 114.
`Cc1ccc(C2OC3=C(C(=O)CC(C)(C)C3)C(N)=C2C#N)o1` (stereo not given) gave RVFV N-RNA FP 94.
For COc1cc2c(N3CCN(C(=O)Nc4ccc(OC(C)C)cc4)CC3)ncnc2cc1OCCCN1CCCCC1 the results were RVFV N-RNA FP 98.
`N#C/C(=C\c1ccc(OCC(N)=O)cc1)c1ccccc1` gave RVFV N-RNA FP 101.
O=C1/C(=C/c2cccs2)CCCc2ccccc21 was read as RVFV N-RNA FP 79.
Cc1nc2ccccc2c(=O)n1-c1cccc(NC(=O)c2ccc(Br)o2)c1 was read as RVFV N-RNA FP 99.
`CC(C)(Oc1ccc(CCNC(=O)c2ccc(Cl)cc2)cc1)C(=O)O` gave RVFV N-RNA FP 94&95.
CC/C(=N/NC(=O)c1ccccc1C)c1ccc(O)cc1 was read as RVFV N-RNA FP 97.

Molecules from the list above that have a COOH group (2):
For CC(C)(C)OC1CC(C(=O)O)N(C(=O)OCc2ccccc2)C1 (stereo not given) the results were RVFV N-RNA FP 93.
`CC(C)(Oc1ccc(CCNC(=O)c2ccc(Cl)cc2)cc1)C(=O)O` gave RVFV N-RNA FP 94&95.

Looked up by compound from the list above (three):
`N#C/C(=C\c1ccc(OCC(N)=O)cc1)c1ccccc1` gave RVFV N-RNA FP 101.
`Cc1ccc(C2OC3=C(C(=O)CC(C)(C)C3)C(N)=C2C#N)o1` (stereo not given) gave RVFV N-RNA FP 94.
CC(C)(S)P(=O)(O)c1ccccc1 was read as RVFV N-RNA FP 101.

(cont.)
`COC(=O)C(C)N(C#N)c1nc(C)nc(C)n1` (stereo not given) gave RVFV N-RNA FP 96.
For CCOC(=O)C(Sc1nc(C)cc(=O)[nH]1)c1ccccc1 (stereo not given) the results were RVFV N-RNA FP 96.
`COCCNC(=O)Nc1ccc(F)cc1` gave RVFV N-RNA FP 92.
For FC1(F)C2C3C=CC(O3)C2C1(F)F (stereo not given) the results were RVFV N-RNA FP 97.
`COc1ccc(OCC(O)CNS(=O)(=O)c2ccc(-c3ccccn3)s2)cc1` (stereo not given) gave RVFV N-RNA FP 99.
`CC(C)c1cccc(C(C)C)c1OCCOCCN1CCNCC1` gave RVFV N-RNA FP 96.
`CN(Cc1ccccc1)C(=O)CN(c1cccc(F)c1)S(C)(=O)=O` gave RVFV N-RNA FP 94.
COc1ccc2c(c1)CCCN2C(N)=O was read as RVFV N-RNA FP 98.
`O=c1c(Cl)c[nH]n(-c2ccccc2)c1=O` gave RVFV N-RNA FP 95.
CC(Sc1ncccn1)C(=O)N/N=C/c1ccccc1Cl (stereo not given) was read as RVFV N-RNA FP 97.
For Cc1ccc(N/N=C2/CCc3ccccc3C2=O)cc1 the results were RVFV N-RNA FP 94.
Screening O=C(OCn1nnc2ccccc2c1=O)c1ccccc1 returned RVFV N-RNA FP 95.
For CCCCC(CC)C(=O)Nc1ccc(S(=O)(=O)N2CCCCC2)cc1 (stereo not given) the results were RVFV N-RNA FP 106.
CCOP(=O)(CC)CC(=O)O (stereo not given) was read as RVFV N-RNA FP 91.
Cc1ccc2c(c1)sc1nc(-c3ccccc3Cl)cn12 was read as RVFV N-RNA FP 91.
COc1ccc(O)c(CN(C)CCN(C)C)c1 was read as RVFV N-RNA FP 106.
For COc1ccc(S(=O)(=O)N2CCC(C(=O)N3CCCCCC3)CC2)cc1C the results were RVFV N-RNA FP 96.
C1CCOC2(CCC3(CC2)OCCCCO3)OC1 was read as RVFV N-RNA FP 96.
Cc1ccc(Cl)cc1NC(=O)CC(O)(C(F)(F)F)C(F)(F)F was read as RVFV N-RNA FP 99.
C(=C\c1ccccc1)/CN1CCN(c2ccccc2)CC1 was read as RVFV N-RNA FP 100.
`COc1cccc(N2C(=O)CC(c3c[nH]c4ccccc34)C2=O)c1` (stereo not given) gave RVFV N-RNA FP 91.
Cn1nc(C2CC2)cc1NC(=O)Nc1csc2ccccc12 was read as RVFV N-RNA FP 98.
Screening CCOC(=O)c1oc2nc(-c3ccccc3)cc(-c3ccco3)c2c1N returned RVFV N-RNA FP 112.
For Cc1c(NC2=CC(=O)CCC2)c(=O)n(-c2ccccc2)n1C the results were RVFV N-RNA FP 104.
For CCCCn1cnc2c(c1=O)c1nc3ccccc3nc1n2CCc1ccc(OC)cc1 the results were RVFV N-RNA FP 96.
COc1ccc(CC(=O)N2CCCC2)cc1 was read as RVFV N-RNA FP 97.
CC(C)=NOCC(=O)Nc1ccccc1C was read as RVFV N-RNA FP 97.
COC(=O)NCCOc1cc(C)ccc1C was read as RVFV N-RNA FP 96.
Screening c1ccc(CN2CCC(NN3CCOCC3)CC2)cc1 returned RVFV N-RNA FP 99.
For Cc1cc(C)c2nc(C(F)(F)F)nc(NCc3ccc4c(c3)OCO4)c2c1 the results were RVFV N-RNA FP 109.
Screening COC1C(OC)N(S(C)(=O)=O)CCN1S(C)(=O)=O (stereo not given) returned RVFV N-RNA FP 101.
S=C(NCCc1ccncc1)NC1CCCCC1 was read as RVFV N-RNA FP 94.
`CS(=O)(=O)Nc1ccc(C(=O)N2CCCCC2)cc1` gave RVFV N-RNA FP 96.
For NS(=O)(=O)c1ccc(CCN2CC3=C(C2=O)C(c2ccccc2)NC(=O)N3)cc1 (stereo not given) the results were RVFV N-RNA FP 93.
COc1ccc(C(=O)COC(=O)c2ccc(N)cc2)cc1 was read as RVFV N-RNA FP 95.
O=C(CSc1nc(-c2ccccc2)cc(=O)[nH]1)NCC1CCCO1 (stereo not given) was read as RVFV N-RNA FP 90.
`Cc1ccccc1C(=O)Nc1cccc(N(C)C)c1` gave RVFV N-RNA FP 99.
For COc1ccc(S(=O)(=O)NCC(c2cccnc2)N2CCN(C)CC2)cc1OC (stereo not given) the results were RVFV N-RNA FP 95.
For COCC(=O)Nc1ccc(Nc2ccccc2)cc1 the results were RVFV N-RNA FP 94.
COc1ccc(OC)c(N2C(=O)NC(=O)C(CCc3ccccn3)(CCc3ccccn3)C2=O)c1 was read as RVFV N-RNA FP 100.

The final 4 compounds of the section above open the next one.
`Cc1ccccc1C(=O)Nc1cccc(N(C)C)c1` gave RVFV N-RNA FP 99.
For COc1ccc(S(=O)(=O)NCC(c2cccnc2)N2CCN(C)CC2)cc1OC (stereo not given) the results were RVFV N-RNA FP 95.
For COCC(=O)Nc1ccc(Nc2ccccc2)cc1 the results were RVFV N-RNA FP 94.
COc1ccc(OC)c(N2C(=O)NC(=O)C(CCc3ccccn3)(CCc3ccccn3)C2=O)c1 was read as RVFV N-RNA FP 100.
Screening COc1ccc(-c2nnc(NC(=O)c3ccc(S(=O)(=O)N4CCCCC4)cc3)o2)cc1 returned RVFV N-RNA FP 93.
For CCOC(=O)c1c(C)[nH]c(C(=O)N/N=C\c2ccccc2)c1C the results were RVFV N-RNA FP 102.
Screening Cc1ccc(Nc2cn[nH]c(=S)n2)cc1 returned RVFV N-RNA FP 93.
Screening Cc1nn(C)c(C)c1NC(=S)NC1CCCC1 returned RVFV N-RNA FP 100.
Screening Cc1c(C)n(C(=O)CN2CCC(C(N)=O)CC2)c2ccccc12 returned RVFV N-RNA FP 96.
CNC(=O)COc1ccc(S(=O)(=O)N2CCOCC2)cc1Cl was read as RVFV N-RNA FP 100.
`CCSC1=N/C(=C\c2cccc(OC)c2)C(=O)S1` gave RVFV N-RNA FP 89.
Screening CC(C)C[C@H](NC(=O)[C@@H](Cc1c[nH]c2ccccc12)NC(=O)[C@H](Cc1ccc(O)cc1)NC(=O)[C@H](CO)NC(=O)[C@H](Cc1c[nH]c2ccccc12)NC(=O)[C@H](Cc1cnc[nH]1)NC(=O)[C@@H]1CCC(=O)N1)C(=O)N[C@@H](CCCN=C(N)N)C(=O)N1CCC[C@H]1C(=O)NCC(N)=O returned RVFV N-RNA FP 99.
For COc1ccc(C(=O)/C=C(\N)C(F)(F)F)c(O)c1 the results were RVFV N-RNA FP 96.
For c1ccc(Nc2nc(N3CCCC3)nc(N3CCCC3)n2)cc1 the results were RVFV N-RNA FP 85.
COc1ccc(/C=C/C(=O)N2CCC(c3ccccc3)C2)cc1 (stereo not given) was read as RVFV N-RNA FP 102.
Screening COc1ccc(C)cc1S(=O)(=O)N1CCCC(C(=O)NCC2CCCO2)C1 (stereo not given) returned RVFV N-RNA FP 93.
CCOC(=O)C(C#N)C(=O)c1ccc(NC(=O)c2ccccc2)cc1 (stereo not given) was read as RVFV N-RNA FP 100.
For O=C1/C(=C\c2ccsc2)N2CCC1CC2 the results were RVFV N-RNA FP 91.
For c1ccc(Cn2c(Sc3nnnn3-c3ccccc3)nnc2-c2ccccc2)cc1 the results were RVFV N-RNA FP 93.
CCCN(CCC)S(=O)(=O)c1ccc(N)cc1 was read as RVFV N-RNA FP 98.
Screening COc1ccc(-c2c(N)n[nH]c2-c2ccccc2)cc1OC returned RVFV N-RNA FP 102.
CCN(CC)CCOC(=O)C1(C2CCCCC2)CCCCC1 was read as RVFV N-RNA FP 102&91.
Cc1cc(C)n(C(=O)c2cccc(S(=O)(=O)N3CCCC3)c2)n1 was read as RVFV N-RNA FP 97.
Screening COC(=O)c1ccsc1NC(=O)CS(=O)(=O)c1ccccc1 returned RVFV N-RNA FP 95.
For Cc1ccc(O)c(C(=O)/C=C(\N)C(F)(F)F)c1 the results were RVFV N-RNA FP 101.
`Cc1sc(-c2ccccc2)nc1CC(=O)NN` gave RVFV N-RNA FP 92.
CCCOc1cccc2ccccc12 was read as RVFV N-RNA FP 94.
For O=C1CC(NCCc2ccccc2)C(=O)N1c1ccccc1 (stereo not given) the results were RVFV N-RNA FP 97.
For N=C(N)N=Nc1c(O)[nH]c2ccccc12 the results were RVFV N-RNA FP 94.
Screening CCN(CC)C(=O)Nc1c(C)cc(C)cc1C returned RVFV N-RNA FP 103.

Arranged by molar mass (high to low): some entries from above.
Screening COC(=O)c1ccsc1NC(=O)CS(=O)(=O)c1ccccc1 returned RVFV N-RNA FP 95.
Cc1cc(C)n(C(=O)c2cccc(S(=O)(=O)N3CCCC3)c2)n1 was read as RVFV N-RNA FP 97.
For O=C1CC(NCCc2ccccc2)C(=O)N1c1ccccc1 (stereo not given) the results were RVFV N-RNA FP 97.
`Cc1sc(-c2ccccc2)nc1CC(=O)NN` gave RVFV N-RNA FP 92.
Screening CCN(CC)C(=O)Nc1c(C)cc(C)cc1C returned RVFV N-RNA FP 103.
